Screens (PubChem BioAssay)
miR-21 reporter: raises the signal of a miR-21 reporter; Potency, µM (series often up to 38.3 µM), without a hit: at the highest dose reporter change, positive = more light; AID 2288; 340,000 tested, under 10 active; HeLa miR-21 FLuc reporter, luciferase, 48 h; active = well fitted rising curve with a large enough effect; inconclusive = small, poorly fitted or top-dose-only effect; inactive = no such curve, though single readings can be large or run the other way;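 note: % of control where 0% means no effect; miR-21 action dims this reporter so a rising signal means less miR-21 action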
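HeLa cells stably expressing CMV-driven firefly luciferase with a downstream miR-21 binding sequence, endogenously expressing miR-21, were treated with titrations (up to about 40uM final) for 48 hours at 37 degree Celsius. Luciferase luminescence was read after lysis.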
Rango complex inh: prevents formation of the Rango-importin beta complex | Rango CFP/YFP FRET sensor + importin beta, 45 min | Potency, µM (top dose mostly 92.2 µM), inactives show at the highest dose inhibition of complex formation | 0.031% of 340,000 active; active = rising FRET ratio curve, often small or poorly fitted; inconclusive = mostly compound fluorescence or quenching in the first reads; inactive = flat curves in all reads;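 note: potency is the fitted concentration of half-maximal effect; 0% = DMSO wells and 100% = buffer wells lacking importin beta; nearly all actives have a fitted effect of over 15% in size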
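FRET biosensor (snurportin 1 IBB flanked by EYFP and cerulean), 50 nM, with compound 5 min, then 0.125 microM importin beta in PBS, 1 mM DTT, 0.02% Tween-20, 0.1% BSA. CFP/YFP ratio read after 45 min at room temperature; pre-read flags interference.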
GLA inh pH 4.5: blocks human alpha-galactosidase A at pH 4.5 | P06280 | activity change, negative = inhibition, % at 105 µM | purified enzyme, 4-MU-alpha-Gal fluorescence, pH 4.5 | 230,000 tested, under 10 active | AID 1467; inconclusive = small, poorly fitted or top-dose-only inhibition, or a rising curve; inactive = flat fitted curve, though single readings scatter; no compound was filed as active;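 note: 0% = full activity with enzyme and -100% = basal without enzyme; dose as in the result columns while the protocol names 77 µM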
Target sequence (P06280 whole entry, looked up): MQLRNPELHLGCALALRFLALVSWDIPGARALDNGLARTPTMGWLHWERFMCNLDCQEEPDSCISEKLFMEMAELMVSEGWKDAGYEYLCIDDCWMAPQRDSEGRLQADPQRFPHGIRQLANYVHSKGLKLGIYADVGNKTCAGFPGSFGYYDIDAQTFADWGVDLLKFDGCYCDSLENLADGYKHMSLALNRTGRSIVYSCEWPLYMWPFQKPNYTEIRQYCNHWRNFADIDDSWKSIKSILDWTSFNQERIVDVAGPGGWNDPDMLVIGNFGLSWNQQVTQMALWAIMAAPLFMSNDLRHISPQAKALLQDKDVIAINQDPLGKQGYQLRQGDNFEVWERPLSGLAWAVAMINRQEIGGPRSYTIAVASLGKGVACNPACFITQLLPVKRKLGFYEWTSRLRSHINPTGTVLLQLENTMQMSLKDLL
Rango release inh: inhibitors of RanGTP-induced Rango-importin beta complex dissociation | 0.071% of 340,000 active | O95149+P62826 | Biochemical FRET Rango-importin beta, RanGTP-induced dissociation | AID 540253 | Potency, µM (doses to about 46.1 µM), inactives show top-dose activity change, negative = inhibition; active means falling FRET ratio curve, often poorly fitted, with flat reads before Ran was added; inconclusive means other falling curves, or compound fluorescence or quenching; inactive means flat or rising ratio curve;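 note: potency is the fitted concentration of half-maximal effect; % of control where 0% means no effect; nearly all actives have a fitted effect of over 45% in size; -100% = wells without RanGTP and RCC1; the record marks most hits as doubtful in a second field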
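Two FRET readings bracket the reaction: one 5 min after compound meets Rango–importin beta, another 45 min after RanGTP-RCC1 (0.6 uM Ran, 0.2 uM RCC1, 2 mM GTP) is added. Only the second defines inhibition.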
* marks the source's active call; other numbers are inactive results; ? = inconclusive; . = not tested or not shown; & = joins results of further samples.

SMILES	miR-21 reporter	Rango complex inh	GLA inh pH 4.5	Rango release inh
O=C(CCN1C(=O)NC2(CCCC2)C1=O)Nc1ccc(-c2nc3ccccc3s2)cc1	.	?	.	-19%
Cc1ccc(OCCNC(=O)c2ccccc2F)cc1	-23%	0.6%	.	-4%
Cc1ccc(/C=N/NC(=O)CSc2nnc(-c3ccc(Cl)cc3)n2-c2ccc(Cl)cc2)o1	-10%	-1.3%	-2	8%
CN(C)S(=O)(=O)c1ccc2c(c1)c(=O)c(C(=O)NCCCN1CCCCCC1)cn2C	-9%	-0.5%	0	24%
OCCC1CN(Cc2ccc(-c3ccco3)cc2)CCN1Cc1ccsc1 (stereo not given)	-2%	-4.0%	-3	1%
Cc1ccc(C)c(NC(=O)CSc2nnc(-c3n[nH]c4ccccc34)o2)c1	11%	-3.9%	-2	-13%
CSc1nc(N)nc(SCC(=O)Nc2cccc(F)c2)c1C#N	3%	4.5%	-2	-6%
O=C(Nc1ccon1)c1csc2c1CCCC2	-14%	-0.1%	-3	8%
CC(C)(CC(=O)O)CC(=O)N1CCN(c2cc(C(F)(F)F)nc3ccccc23)CC1	-9%	-2.0%	.	0%
Cn1c2ccc(F)cc2c2nnc(NN)nc21	0%	1.6%	-1	-4%
CC1CN(C2CCCCC2)c2nc3c(c(=O)[nH]c(=O)n3C)n2C1 (stereo not given)	-11%	0.6%	7	10%
O=C(Nc1ccncc1)c1ccc2c(c1)OCCO2	-14%	0.0%	-14	?
CCOc1ccccc1N(CC(=O)Nc1cc(OC)ccc1OC)S(=O)(=O)c1ccccc1	21%	1.5%	.	0%
COc1cccc(NC(=O)CCCn2c(=O)[nH]c3ccccc3c2=O)c1	-2%	1.5%	8	-10%
Cc1ccc([C@H]2C(C(=O)O)=CC[C@@H](c3ccc(Cl)cc3)N2S(=O)(=O)c2ccc(C)cc2)cc1	.	?	.	-3%
COc1ccc(-c2c(C)nn3c(N4CCC(C(=O)N5CCCCC5)CC4)cc(C)nc23)cc1OC	0%	3.6%	-6	9%
Cc1ccccc1CSCCNC(=O)c1ccccc1	-11%	0.0%	8	-14%
CCc1nnc(NC(=O)c2cccc(S(=O)(=O)N3CC(c4ccccc4)CC3=O)c2)s1 (stereo not given)	-4%	-0.2%	2	10%
CC(C)COC(=O)n1c(SCC(N)=O)nc2ccccc21	-4%	-1.9%	-2	-5%
Cc1occc1-c1nnc(SCC(=O)Nc2nc(C(C)(C)C)cs2)o1	-17%	0.2%	1	0%
COC(=O)c1sc(N)c(C(=O)OC)c1COC(=O)c1c(C)noc1C	22%	1.2%	-6	-14%
Cc1cc(C#N)c(SCC(N)=O)nc1-c1ccc(F)cc1	-39%	4.2%	4	0%
CCOc1ccc(N(C(C)=O)C2C=CS(=O)(=O)C2)cc1 (stereo not given)	-1%	-5.4%	-4	0%
CN(C)C(CNC(=O)CCOc1ccccc1)c1ccco1 (stereo not given)	-8%	?	-5	-11%
CCOC(=O)CNc1nc(C#N)nc(N2CCOCC2)n1	-3%	2.2%	2	15%

Compound profiles, as listed above.
Cc1ccc(/C=N/NC(=O)CSc2nnc(-c3ccc(Cl)cc3)n2-c2ccc(Cl)cc2)o1 is listed as miR-21 reporter = -10%; Rango complex inh = -1.3%; GLA inh pH 4.5 = -2; Rango release inh = 8%
O=C(Nc1ccon1)c1csc2c1CCCC2 is listed as miR-21 reporter = -14%; Rango complex inh = -0.1%; GLA inh pH 4.5 = -3; Rango release inh = 8%

Next structures
SMILES	miR-21 reporter	Rango complex inh	GLA inh pH 4.5	Rango release inh
O=C(CN1CCc2ccccc21)NC(=O)NCc1ccccc1	-10%	-2.8%	-4	16%
Cc1ccccc1Nc1cc2ccccc2c(=O)[nH]1	-12%	?	1	?
CCC(=O)c1c(NC(C)C)cc(C)oc1=O	0%	1.5%	-3	-3%
COc1cccc(CCC2C(=O)CCCC2=O)c1	.	-0.8%	.	3%
CCc1sc(C(=O)Nc2ccsc2C(=O)OC)cc1Br	3%	?	2	?
Oc1ccc(-c2cnns2)c(O)c1	2%	-0.1%	9	-10%
CC(=O)c1ccc(OCC(=O)NC2CCCN(Cc3ccccc3F)C2)cc1 (stereo not given)	-3%	0.6%	.	-21%
CCN(CC)C(=O)CN(c1ccc(C)cc1)S(=O)(=O)c1ccc(SC)cc1	-2%	-0.1%	5	-8%
CCc1ccccc1NC(=O)c1noc(C(C)C)c1[N+](=O)[O-]	6%	-2.9%	-3	-13%
COc1ccc(/C=C2\SC(=S)N(CCC(=O)Nc3ccc(C(=O)O)cc3)C2=O)cc1OC	-1%	1.3%	.	2%
COc1ccccc1OCCSc1nc2ccccc2c(=O)[nH]1	-30%	2.1%	-3	-11%
O=C(c1ccccc1)c1nn(-c2ccc(Cl)cc2)cc1C(=O)c1cc2ccccc2oc1=O	-3%	-2.4%	4	-14%
COc1ccc(N2CC(C(=O)OCC(=O)Nc3cc(C)on3)CC2=O)cc1 (stereo not given)	8%	-3.6%	.	-3%
CN(CC(=O)Nc1ccccc1C(F)(F)F)C(=O)c1cc(-c2cccs2)nn1-c1ccccc1	.	-1.3%	.	-9%
O=c1[nH]c(CN2CCOCC2)nc2scc(-c3ccccc3)c12	-9%	-0.1%	9	9%
CCNC(=O)NC(=O)COC(=O)c1cccc(NS(=O)(=O)/C=C/c2ccccc2)c1	-4%	6.1%	-5	2%
Cn1c(=O)oc2cc(S(=O)(=O)NCCC(=O)NCCc3ccc(Cl)cc3)ccc21	1%	-3.1%	-6	10%
Cc1ccc(CN(Cc2ccco2)C(=S)Nc2ccccc2C)cc1	-1%	-3.4%	-8	-1%
Cc1ccc(Nc2nnc(SCC(=O)Nc3cccnc3Cl)s2)cc1C	-28%	-1.7%	-9	11%
CC(=O)N(c1ccc2oc(=O)sc2c1)S(=O)(=O)c1ccc(C)cc1	10%	0.6%	.	-5%
COC(=O)C1=C(C)N(Cc2ccccc2)C(=NCc2ccccc2)N[C@H]1c1cccc(C(F)(F)F)c1	.	-2.2%	.	-3%
O=C(COc1ccc(/C=C\[N+](=O)[O-])cc1)N1CCOCC1	8%	-2.3%	9	1%
CC(C)=CC(=O)Nc1cccc(S(=O)(=O)NC2=NCCCCC2)c1	.	1.9%	.	21%
CSc1sc(C(=O)O)c2c1C(=O)CC(C)(C)C2	.	2.4%	.	22%
N/C(CN1CCCC1=O)=N\O	-3%	-1.2%	-13	-9%
SMILES	miR-21 reporter	Rango complex inh	GLA inh pH 4.5	Rango release inh
O=C(COc1ccccc1)Nc1cccc(-c2cn3cccnc3n2)c1	-9%&-10%	?	.	?
COC(=O)c1ccc(C#Cc2ccccc2)o1	-39%	?	-2	?
O=C(NCCO)c1cc2c([nH]c3ccccc32)c(-c2ccccc2)n1	-8%	0.0%	.	-23%
Cc1ccc(NC(=O)[C@H](NC(=O)[C@@H]2Cc3ccccc3CN2)c2ccccc2)cc1	-23%	0.2%	.	-2%
O=C(Nc1ccc(F)cc1)c1cn(-c2ccccc2)nc1-c1ccncc1	29%	-0.3%	-7	-1%
O=C(CSc1ccc(-c2ccccc2)nn1)NC1CCCCC1	-12%	0.1%	.	1%
CCN(C(=O)COC(=O)c1ccco1)c1cccc2ccccc12	.	0.8%	.	16%
O=C(CC1C(=O)N(c2ccccc2)C(=S)N1c1ccccc1)c1ccccc1 (stereo not given)	0%	0.7%	-7	-5%
CCc1ccc(N(C(=O)c2snc(C(N)=O)c2N)C(C(=O)NCC2CCCO2)c2ccco2)cc1 (stereo not given)	0%	?	.	-2%
COc1cc2c(-c3cc(F)cc(F)c3)c(-c3ccsc3)oc(=O)c2cc1OC	.	2.3%	.	2%
O=C(Cn1c(C(=O)NCC2CCCO2)cc2sccc21)c1ccccc1 (stereo not given)	-4%	-0.4%	0	2%
CC(C)N1CCN(Cc2ccncc2)CC1CCO (stereo not given)	1%	-0.6%	-1	14%
O=C(O)CCC(=O)c1ccc2ccc3cccc4ccc1c2c34	20%	.	23	.
CCC(C)NC(=S)N1CCN(C(c2ccccc2)c2ccccc2)CC1 (stereo not given)	15%	-0.7%	-3	9%
COCCCNC(=S)NNC(=S)NCCCOC	-3%	0.1%	-3	10%
CC1(OC(=O)C2CCCC2)C(=O)C=C2C=C(c3ccc(C#N)cc3)OC=C2C1=O (stereo not given)	.	-2.3%	1	-13%
Cc1ccc(-c2nc3c(=O)n(C)c4ccccc4c3o2)cc1	-10%	1.3%	6	5%
Cc1cc(C)c(NC(=O)CS(=O)CC(=O)N2CCN(c3ccc(F)cc3)CC2)c(C)c1 (stereo not given)	5%	-1.0%	4	1%
COc1ccccc1NC(=O)Nc1ncccc1C	-18%	1.9%	5	4%
O=C(/C(=C(/[O-])c1ccccc1)[n+]1ccccc1)c1ccc([N+](=O)[O-])cc1	-1%	-0.2%	-1	-15%
COc1ccc(N(CC(=O)Nc2ccc3c(c2)OCO3)S(=O)(=O)c2ccccc2)c(OC)c1	13%	0.0%	-4	23%
O=C(NC1CCS(=O)(=O)C1)N1CCCCC1 (stereo not given)	-7%	0.0%	-2	2%

A section of the results above:
SMILES	miR-21 reporter	Rango complex inh	GLA inh pH 4.5	Rango release inh
CCc1ccc(N(C(=O)c2snc(C(N)=O)c2N)C(C(=O)NCC2CCCO2)c2ccco2)cc1 (stereo not given)	0%	?	.	-2%
COc1cc2c(-c3cc(F)cc(F)c3)c(-c3ccsc3)oc(=O)c2cc1OC	.	2.3%	.	2%

Structures above that contain a CF3 group:
SMILES	miR-21 reporter	Rango complex inh	GLA inh pH 4.5	Rango release inh
CC(C)(CC(=O)O)CC(=O)N1CCN(c2cc(C(F)(F)F)nc3ccccc23)CC1	-9%	-2.0%	.	0%
CN(CC(=O)Nc1ccccc1C(F)(F)F)C(=O)c1cc(-c2cccs2)nn1-c1ccccc1	.	-1.3%	.	-9%
COC(=O)C1=C(C)N(Cc2ccccc2)C(=NCc2ccccc2)N[C@H]1c1cccc(C(F)(F)F)c1	.	-2.2%	.	-3%

A portion of the library; count on the stated rates, not on these rows.
